VDR inhibitor: blocks the human vitamin D receptor; VDR-SRC2-3 peptide fluorescence polarization, 2 h; Potency, µM, for inactives: max response, negative = inhibition, hits mostly inhibitors; hit rate 0.93% among 400,000; AID 504847; P11473; active means well fitted inhibition curve with a large enough effect; inconclusive means small, poorly fitted or top-dose-only effect, or another doubt; inactive means no such curve, though single readings can be large or run the other way; further: series mostly up to about 120 µM
Target sequence (P11473 whole entry, looked up): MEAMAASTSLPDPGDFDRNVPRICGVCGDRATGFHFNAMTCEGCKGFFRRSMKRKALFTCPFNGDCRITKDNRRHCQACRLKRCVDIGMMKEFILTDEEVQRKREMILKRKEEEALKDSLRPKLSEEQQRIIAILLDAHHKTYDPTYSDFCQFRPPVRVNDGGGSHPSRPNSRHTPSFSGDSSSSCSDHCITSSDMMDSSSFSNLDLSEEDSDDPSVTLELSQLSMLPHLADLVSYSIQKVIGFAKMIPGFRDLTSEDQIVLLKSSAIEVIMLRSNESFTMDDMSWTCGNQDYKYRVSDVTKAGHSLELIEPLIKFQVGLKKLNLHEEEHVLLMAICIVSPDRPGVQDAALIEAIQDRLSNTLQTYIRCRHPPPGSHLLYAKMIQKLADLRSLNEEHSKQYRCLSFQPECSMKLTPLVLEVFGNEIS
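VDR–SRC2-3 interaction, FP format. Cmpds 23 nl via pintool, brief spin, 2 h ambient incubation.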
An asterisk follows results filed as active; ? = inconclusive; & = joins results of further samples; [ ] = remark or other dose. On the % scale 0 is the no-effect control and ±100 the full control effect; potency means the concentration at half of the fitted maximal effect. The list is partial; rates above refer to the full screens.

SMILES	VDR inhibitor
CC(C)C[C@@H](CN1CCC[C@@H]1CN1C(=O)C(=O)NC[C@@H]1Cc1ccccc1)N1C[C@H](Cc2ccc(O)cc2)N(CC2CCCCCC2)C(=O)C1=O	11%
CC(C)C1Cc2c(sc3c2c(=O)n(-c2ccccc2)c2n[nH]c(=S)n32)CO1 (centres undefined)	-16%
O=C(CCCC(=O)N(CC(=O)NC1CCCC1)Cc1ccccc1Cl)Nc1ccccn1	-10%
CCC(C)NC(=O)CCC(=O)Nc1ccc2nc(N3CC(C)CC(C)C3)cc(C)c2c1 (centres undefined)	6%
CCCC[C@@H]1C=C(C(=O)O)[C@H](c2ccc(Cl)cc2)N1S(=O)(=O)c1ccc(C)cc1	?
Cc1ccccc1N/C(SCc1ccc(Cl)cc1)=C(/C#N)C(=O)NCc1ccco1	116%[activator]
Cc1ccc(C)c(Nc2nc(N)c3ccccc3n2)c1	-3%
Cc1nn(C)c(C)c1/C=N/NC(=O)CCn1cc([N+](=O)[O-])cn1	-18%
COc1cccc(NC(=S)N(CCN(C)C)Cc2cccs2)c1	-17%
COc1ccc(-c2sc(Nc3ccccc3)n[n+]2-c2ccc(F)cc2)c(C)c1C	-12%
O=C(CN1C(=O)c2ccccc2S1(=O)=O)NCCSCc1cccc(Cl)c1	18%
COC(=O)c1ccc(NC(=O)c2ccc3nccnc3c2)cc1	-4%
CCN(Cc1ccccc1)C(=O)CCS(=O)(=O)c1cc(Br)cc2c1N(C(=O)C1CC1)CC2	-17%
COc1ccc(Cc2nnc(NC(=O)c3ccc(OC)c(OC)c3)s2)cc1OC	2%
CCN1C(=O)N(c2ccc(C(C)=O)cc2)S(=O)(=O)c2ccccc21	-8%&4%
Cc1ccc(CNS(=O)(=O)c2ccc(-c3cnc(C4CC4)o3)cc2)cc1	-7%&13%
N#Cc1cccc(C(c2nnnn2Cc2ccccc2)N2CCCC2)c1 (centres undefined)	4%
O=C(CSc1ccc(-c2ccccc2)nn1)N1CCCc2ccccc21	-7%
COc1cccc(N2CCN(S(=O)(=O)c3ccc4ccccc4c3)CC2)c1	-1%
COc1ccc(OC)c(N(CC(=O)N2CCCC2)S(=O)(=O)c2ccc(OC)c(OC)c2)c1	-12%
COc1ccc(OC)c(C2NC(=O)c3sc(=S)n(-c4ccccc4)c3N2)c1 (centres undefined)	89µM*
Cc1cccc(NC2=C(NCCO)C(=O)c3ccccc3C2=O)c1	?
O=C(CSc1nc(Nc2ccccc2)nc(N2CCOCC2)n1)Nc1cc(Cl)ccc1O	15%
CN(C)CC/C=C1\c2cc(F)ccc2CSc2ccccc21	8%
Cc1ccc(NC(=O)CCC(=O)O)cc1F	21%

7 entries already listed, sorted by the number in VDR inhibitor, smallest number first:
smiles,VDR inhibitor
COc1cccc(NC(=S)N(CCN(C)C)Cc2cccs2)c1,-17%
CC(C)C1Cc2c(sc3c2c(=O)n(-c2ccccc2)c2n[nH]c(=S)n32)CO1 (centres undefined),-16%
COc1ccc(-c2sc(Nc3ccccc3)n[n+]2-c2ccc(F)cc2)c(C)c1C,-12%
O=C(CCCC(=O)N(CC(=O)NC1CCCC1)Cc1ccccc1Cl)Nc1ccccn1,-10%
Cc1ccc(C)c(Nc2nc(N)c3ccccc3n2)c1,-3%
CN(C)CC/C=C1\c2cc(F)ccc2CSc2ccccc21,8%
Cc1ccc(NC(=O)CCC(=O)O)cc1F,21%

The results go on:
SMILES	VDR inhibitor
Cc1nc2ccc(NS(=O)(=O)c3c(F)cccc3F)cc2s1	-3%
O=C(Cc1ccccc1)Nc1cccc(-c2nc3ncccc3o2)c1	1%
Cn1cnc(S(=O)(=O)N2CCC(C(=O)NCc3ccccc3)CC2)c1	6%
CCCCN=C(C)c1c(O)c2ccccc2oc1=O	1%
O=C(NCc1ccc2c(c1)OCO2)c1ccc2c(c1)N(Cc1ccccc1F)C(=O)c1ccccc1S2=O (centres undefined)	-22%
CC1Cc2nc(SCC(=O)Nc3ccc4c(c3)OCO4)n(-c3ccc(F)cc3)c(=O)c2S1 (centres undefined)	-3%
COc1cccc2cc(C(=O)c3ccc([N+](=O)[O-])cc3)oc12	0%
Cc1ccc(-n2nc(C)c(NS(=O)(=O)c3ccccc3)c2C)cc1C	2%
CCCn1c(SCC(=O)NC2CCCCC2C)n[nH]c1=O (centres undefined)	9%
CN(NS(C)(=O)=O)c1c(C#N)c(C(F)(F)F)nn1C	0%
Cc1ccc(CNC(=O)Cn2c(=O)n(CC(=O)N3CCCCC3)c(=O)c3sccc32)cc1	-8%
Cc1ccc(Nc2c(-c3ccc(Br)o3)nc3ccccn23)cc1	-2%
CCN(CC)c1ccc(C(=O)c2ccccc2C(=O)O)c(O)c1	-15%
CC1(C)CC(NC(=O)C23CCC(C)(C(=O)C2=O)C3(C)C)CC(C)(C)N1 (centres undefined)	-13%
COc1ccc(CCN2C(=O)CC(Sc3ncccc3C(=O)O)C2=O)cc1OC (centres undefined)	2%
O=C1c2ccccc2C(=O)N1CC1c2ccccc2CCN1S(=O)(=O)c1cnc[nH]1 (centres undefined)	-7%
C#CCOCCOCCOCCNc1nc(N2CCOCC2)nc(N2CCN(C(=O)[C@H](CC(N)=O)n3cc([C@@H](N)C(C)C)nn3)CC2)n1	6%
CCOc1cc(C(=O)Nc2ccc(N3CCN(C(C)=O)CC3)cc2)cc(OCC)c1OCC	15%
Cc1c(Cl)cccc1N(Cc1ccc(C(=O)O)cc1)S(=O)(=O)c1ccccc1	-8%
COc1cc(NC(=O)c2cc(-c3ccc4c(c3)OCO4)on2)cc(OC)c1OC	1%&-15%
COc1ccc(OC)c(-c2csc(NC(=O)CSCc3c(C)noc3C)n2)c1	11%
Cc1cccc2sc(N(Cc3cccnc3)C(=O)COc3ccccc3)nc12	12%
CCc1nn2c(N3CCOCC3)cc(C)nc2c1-c1ccc(F)cc1	-12%
O=C(CN1CCN(Cc2ccccc2Cl)C1=O)N1CCCCCC1	4%
O=C1[C@@H]2[C@@H]3C[C@@H]([C@H]4ON=C(c5ccc(Cl)cc5)[C@@H]34)[C@@H]2C(=O)N1c1ccc2c(c1)OCO2	-12%

Carrying on:
SMILES	VDR inhibitor
CCN(CC)CCCNC(=O)c1cc2c(=O)n(CC)c3ccccc3c2s1	9%
CCC(C)C(NC(=O)/C(=C\c1ccccc1)NC(=O)c1ccc(OC)cc1)C(=O)O (centres undefined)	-3%
CCOC(=O)C1CCCN(c2c(N3CCOCC3)c(=O)c2=O)C1 (centres undefined)	3%
O=C(CCCCCn1c(=S)[nH]c2ccc(Br)cc2c1=O)NCC1CCCO1 (centres undefined)	8%
Cc1cc(C(=O)Nc2c(C)n(C)n(-c3ccccc3)c2=O)c(C)o1	-1%
CCO[C@H]1OC(C(=O)N2CCN(Cc3ccc4c(c3)OCO4)CC2)=C[C@@H](C2CC2)[C@@H]1CCCO	-14%
COc1cccc(C(C(=O)NC2CCCCC2)N(Cc2ccco2)C(=O)c2ccccn2)c1 (centres undefined)	-5%
Cc1cc2oc(=O)cc(CN3CCOCC3)c2cc1C(C)C	4%
CSc1nnc(-c2ccc(Br)s2)n1C	-1%
CCN(CC)S(=O)(=O)c1ccc(NC(=O)Cn2cnc3ccccc3c2=O)cc1	9%
COCCn1c(N)c(N(Cc2ccccc2)C(=O)COc2ccc(F)cc2Cl)c(=O)[nH]c1=O	8%
COc1ccc(NC(=O)CCN2CCN(C/C=C/c3ccccc3)CC2)cc1	-27%
COCCn1c(C)cc(C(=O)CSc2nncn2-c2ccccc2)c1C	2%
CN(CC(=O)Nc1cccc(F)c1)C(=O)c1ccccc1CCc1ccccc1	17%
O=[N+]([O-])c1ccc(C2=NN(CCO)C(=Nc3ccc(OC(F)(F)F)cc3)SC2)cc1	-6%
CNC(=S)NNC(=O)CNc1ccc(C)c(Cl)c1	?
CCCN(C(=O)/C=C/c1ccco1)c1c(N)n(Cc2ccccc2)c(=O)[nH]c1=O	-26%
Cc1ccc(NS(=O)(=O)c2ccc(C(=O)N3CC(C)OC(C)C3)cc2)cc1 (centres undefined)	-10%
CC(C)ON([C@@H](C(=O)NO)C(C)C)S(=O)(=O)c1ccc(-c2ccccc2)cc1	-15%
CCc1nnc(NC(=O)c2cc(-c3ccccc3)nn2-c2ccccc2)s1	21%
CN(C(=O)COc1coc(CN2CCN(c3ccccc3)CC2)cc1=O)c1ccccc1	-1%
CCC(CC)C(=O)c1c[nH]c(C(=O)NCCOC)c1	-8%
COc1ccc2nc(NC(=O)c3ccccc3C(=O)O)sc2c1	-20%
Cc1nc2ccc(NC(=O)c3ccc(Cl)nc3)cc2s1	6%
S=C1NC2=C(C(c3ccc(Br)cc3)N1)N1CCC2CC1 (centres undefined)	8%

Next entries.
SMILES	VDR inhibitor
COc1ccccc1/C=C/C(C)=O	6%
O=C(CCSc1ccccc1)NC(=O)COC(=O)C1CCCCC1	1%
O=C1c2ccccc2NC(c2cccc(O)c2)N1c1ccccc1 (centres undefined)	-15%
CC(=O)Nc1cccc(NC(=O)CCNC(=O)c2ccc(Cl)cc2)c1	-3%
COc1ccc(/C=C(\C#N)C(=O)ONC2=NCCCCC2)cc1	23%
C(=NCCCN1CCOCC1)c1ccc2c(c1)OCO2	-12%
COc1ccccc1NS(=O)(=O)c1ccc(C(=O)NCc2ccc(S(N)(=O)=O)cc2)cc1	3%
O=C1C[C@@H]2c3c(cccc3CN1Cc1ccccc1F)C[C@@H](O)[C@H]2O	-6%
CCCCOC(=O)c1ccc(NS(=O)(=O)c2c(C)nc3scc(C)n3c2=O)cc1	2%
CCOC(=O)c1c(-c2ccccc2)csc1NC(=O)c1ccc(N2C(=O)CCC2=O)cc1	5%
O=C(CNC(=O)c1ccco1)OCC(=O)c1ccc([N+](=O)[O-])cc1	?
Nc1ccccc1C(=O)NCc1ccccc1	?
O=C(COc1ccc(Cl)cc1)Nc1nc(-c2ccc(S(=O)(=O)N3CCOCC3)cc2)cs1	-5%
O=C(CN1C(=O)c2cccc3cccc(c23)C1=O)N1CCOCC1	-14%
CCCCn1c(N)c(N(CCOC)C(=O)COC(=O)CCOc2ccc(C)cc2)c(=O)[nH]c1=O	-18%
Cc1c(N=C2N=C(NC(=O)Nc3ccc(Cl)cc3)c3ccccc32)c(=O)n(-c2ccccc2)n1C	-14%
O=S(=O)(CCc1nnc(-c2ccccc2)o1)c1ccc2ccccc2c1	-8%
O=C(CSc1nnc(COc2ccccc2)o1)Nc1ccc(F)cc1	-14%
COc1cccc2[nH]c(C(=O)NCc3ccc4c(c3)CCN4C(=O)c3ccc(F)cc3)cc12	11%
CNc1nnc(SCC(=O)c2c(N)n(C3CC3)c(=O)[nH]c2=O)s1	-5%
COCCN(CCOC)C(=S)Nc1ccccc1Cl	-2%
CCCCN1C(=O)C(=O)N(CC(=O)Nc2cc(OCC)c(N3CCOCC3)cc2OCC)C1=O	-3%
O=C(NCCn1cccn1)c1ccc(OC2CCN(C(=O)C3CC3)CC2)cc1	-5%
CCOC(=O)c1ccc(NC(=S)NCCc2ccccc2)cc1	-8%
CCOC(=O)c1ccc(NS(=O)(=O)c2cc3c(cc2C)NC(=O)CO3)cc1	-11%

Continued, starting with the last 6 of the part before.
SMILES	VDR inhibitor
CNc1nnc(SCC(=O)c2c(N)n(C3CC3)c(=O)[nH]c2=O)s1	-5%
COCCN(CCOC)C(=S)Nc1ccccc1Cl	-2%
CCCCN1C(=O)C(=O)N(CC(=O)Nc2cc(OCC)c(N3CCOCC3)cc2OCC)C1=O	-3%
O=C(NCCn1cccn1)c1ccc(OC2CCN(C(=O)C3CC3)CC2)cc1	-5%
CCOC(=O)c1ccc(NC(=S)NCCc2ccccc2)cc1	-8%
CCOC(=O)c1ccc(NS(=O)(=O)c2cc3c(cc2C)NC(=O)CO3)cc1	-11%
CC(CNC(=O)CCn1ccc2cc(S(=O)(=O)N3CCCC3)ccc21)c1ccccc1 (centres undefined)	-17%
CN1CCN(C(=O)C2=C[C@H](C3CCCCC3)C[C@H](OCc3ccc(CO)cc3)O2)CC1	9%
COCCN1CCN(C(=O)c2ccc3c(c2)S(=O)(=O)c2ccccc2C3=O)CC1	8%
CC(=O)Nc1ccc(S(=O)(=O)NNC(=O)COc2ccc(Cl)cc2Cl)cc1	-9%
Cc1oc2c(c1C(=O)NCc1cccc(Br)c1)C1=NCCN1C=N2	12%
COc1ccc(NC(=O)c2cccnc2C(=O)O)c(OC)c1	?
O=[N+]([O-])c1ccccc1/C=N/OCc1ccccc1	-1%
Cc1ccc(-n2c(O)c(C=Nc3ccc4c(c3)OCO4)c3ccccc3c2=O)cc1C	12%
O=c1c2ccccc2c(-c2ccc(Cl)cc2)nn1-c1ccccc1	0%
Cc1ccc(C)n1-c1ccc(C(=O)NN)s1	11%
CC1CCCC(C)N1S(=O)(=O)c1ccc(NC(=O)CCn2cnc3ccccc3c2=O)cc1 (centres undefined)	-18%
O=C(O)c1ccc(CNCc2ccc(F)cc2)cc1	-11%
O=C(NCc1ccc(F)cc1)c1ccncc1	-8%
CCN(CC)S(=O)(=O)c1ccc(N2CCN(C)CC2)c(NC(=O)CN2C(=O)NC3(CCCCC3)C2=O)c1	1%
O=C(COc1ccccc1)N1CCN(C(=O)COc2ccccc2)CC1	-15%
Cc1ccc(CNC(=O)c2cc3c(=O)n4ccccc4nc3n(Cc3ccco3)c2=N)cc1	-15%
CC(Oc1ccc(F)cc1)C(=O)N(CCC1=CCCCC1)c1c(N)n(Cc2ccccc2)c(=O)[nH]c1=O (centres undefined)	-1%
COc1ccc(-c2cn3cc(Br)cnc3n2)cc1	43%[activator]
O=C(CCNS(=O)(=O)c1ccccc1C(F)(F)F)NCCCc1ccccc1	3%
COc1ccc(-c2ccnc3nc(-n4cccc4)nn23)cc1	-2%
CCOC(=O)C1CCCN(C(=O)c2ccccc2Oc2ccccc2)C1 (centres undefined)	-7%
Cc1ccc(N=C2CCCN2Cc2ccccc2)c(C#N)c1	-4%
O=C(CNS(=O)(=O)c1ccc(Br)s1)NC1CCCc2ccccc21 (centres undefined)	-26%
COc1cccc(NC(=O)CCc2nnc3n(CC(C)C)c(=O)c4ccccc4n23)c1	-6%
CN1CCN(C2=C(Cl)C(=O)N(C3CCCCC3)C2=O)CC1	1%

High-throughput results from PubChem BioAssay.
